# From PubChem BioAssay
# Cruzain noTriton = qHTS Assay for Promiscuous and Specific Inhibitors of Cruzain (without detergent); Cruzipain (Trypanosoma cruzi), P25779; purified cruzain, Z-FR-AMC fluorescence, no detergent; Potency, µM, for the others: max response, negative = inhibition, hits mostly inhibitors; hit rate 2.3% among 200,000;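 note: plate controls were enzyme without inhibitor for no effect and buffer without enzyme for full effect; nearly all actives have a fitted effect of over 40% in size; top concentration of the series not given in the record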
# Target sequence (P25779 123-467 limits assumed): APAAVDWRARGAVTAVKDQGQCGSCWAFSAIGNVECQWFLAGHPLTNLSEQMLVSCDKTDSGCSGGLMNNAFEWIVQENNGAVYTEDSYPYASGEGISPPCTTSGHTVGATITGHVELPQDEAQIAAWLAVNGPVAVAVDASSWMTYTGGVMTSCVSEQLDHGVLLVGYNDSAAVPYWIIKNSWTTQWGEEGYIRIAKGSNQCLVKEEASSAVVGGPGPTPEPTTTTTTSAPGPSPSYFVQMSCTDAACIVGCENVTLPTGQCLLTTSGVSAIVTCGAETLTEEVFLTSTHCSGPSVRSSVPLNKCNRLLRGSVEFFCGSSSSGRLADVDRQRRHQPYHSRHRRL
#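 Detergent-free condition (0.00005% Triton X-100) in acetate buffer pH 5.5 with DTT. 1.5 nM enzyme and compound were pre-mixed 15 min, then 2 uM Z-FR-AMC substrate added; reaction progress from fluorescence change between first and third reads (60 s).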
# SARS PLpro yeast = qHTS of Yeast-based Assay for SARS-CoV PLP; hit rate 0.19% among 330,000; Potency, µM (series often up to 32.9 µM), for inactives: at the top dose activity, positive = growth rescue; S. cerevisiae expressing SARS-CoV PLpro, growth rescue; control for the full effect not named in the record; AID 485353, 2010; active means well fitted rising curve with a large enough effect; inconclusive means small, poorly fitted or top-dose-only effect; inactive means no such curve, though single readings can be large or run the other way; note: 0% is about no effect; nearly all actives have a fitted effect of over 55% in size; growth read by luminescence after 48 h
# StopGo reporter = High Throughput Screening for Foot and Mouth Disease Virus Antivirals | AID 1159524, 2015 | human cells with a luciferase reporter of 2A StopGo recoding; control for the full effect not named in the record | hit rate 1.2% among 410,000 | Potency, µM (doses to about 57.9 µM), for inactives: at the highest dose signal change, negative = less light; active = well fitted falling curve with a large enough effect; inconclusive = small, poorly fitted or top-dose-only effect; inactive = no such curve, though single readings can be large or run the other way; tested in HEK293T cells; note: % is set by controls: 0 for no effect and ±100 for the full control effect; nearly all actives have a fitted effect of over 45% in size; luciferase light after 4 h
# Cruzain inh Det = qHTS Assay for Promiscuous and Specific Inhibitors of Cruzain (with detergent); Cruzipain (Trypanosoma cruzi), P25779; purified cruzain, Z-FR-AMC fluorescence, 0.01% Triton; Potency, µM, without a hit: max response, negative = inhibition, usual class: inhibitors; hit rate 0.43% among 200,000; AID 1478, 2009;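 note: plate controls were neutral wells for no effect and buffer without enzyme for full effect; nearly all actives have a fitted effect of over 40% in size; top concentration of the series not given in the record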
#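 Enzyme 1.5 nM, Z-FR-AMC 2 uM, NaOAc 100 mM pH 5.5, DTT 5 mM, Triton X-100 0.01%; 15 min RT compound preincubation; kinetic ex360/em450, 60 s delta.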
# NS1 function inh = qHTS Assay for Inhibitors of Influenza NS1 Protein Function | Potency, µM (top dose mostly 46.1 µM), without a hit: at the highest dose activity, positive = more growth | S. cerevisiae slowed by influenza A NS1, growth recovery by OD600 | AID 2326, 2010 | hit rate 0.4% among 270,000; active means well fitted rising curve with a large enough effect; inconclusive means small, poorly fitted or top-dose-only effect; inactive means no such curve, though single readings can be large or run the other way; note: nearly all actives have a fitted effect of over 50% in size
#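 Recovery from NS1-induced slow growth read by OD600 in budding yeast switched to galactose assay medium (pH 6.0, -URA) at 1:100 dilution. Compound 23 nl per well; the matching strain lacking NS1 serves as control.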
# RE007 growth inh = qHTS Assay for Inhibitors of the HIV-1 protein Vpr; S. pombe RE007 Vpr strain, BacTiter-Glo ATP luminescence, 24 h; control for the full effect not named in the record; Potency, µM (highest dose often 92.2 µM), for the others: at the top dose activity change, negative = less growth; hit rate 0.21% among 360,000; active = well fitted falling curve with a large enough effect; inconclusive = small, poorly fitted or top-dose-only effect; inactive = no such curve, though single readings can be large or run the other way;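 note: % is set by controls: 0 for no effect and ±100 for the full control effect; nearly all actives have a fitted effect of over 50% in size; the assay follows cell death caused by Vpr and the record does not say whether a fall means rescue or toxicity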
#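 Fission yeast RE007 carrying one integrated HIV-1 vpr copy, seeded at OD 0.01 in PMG+AL medium with 23 nL pinned compound. Grown 24 h at 30 degrees; viability read by BacTiter-Glo luminescence after 5 min.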
# Marburg entry inh = qHTS for inhibitors of binding or entry into cells for Marburg Virus | AID 540276, 2011 | Potency, µM (titrated, usually from 37.8 µM), without a hit: top-dose activity change, negative = inhibition, usual class: inhibitors | Marburg virus pseudotyped entry inhibition, cell reporter; control for the full effect not named in the record; about a third of the inactives were read at about 46 µM | hit rate 1.8% among 300,000; active = well fitted inhibition curve with a large enough effect; inconclusive = small, poorly fitted or top-dose-only effect, or effect the other way; inactive = flat fitted curve, though single readings scatter; tested in HEK293 cells; about a fifth of its hits are not listed in these tables; note: % is set by controls: 0 for no effect and ±100 for the full control effect; luciferase read-out
# Lassa entry inh = qHTS for Inhibitors of binding or entry into cells for Lassa Virus; hit rate 1.2% among 300,000; Potency, µM (highest dose often 37.9 µM), for inactives: top-dose activity change, negative = inhibition, usual class: inhibitors; Lassa virus pseudotype entry inhibition, cell reporter; control for the full effect not named in the record; active means well fitted inhibition curve with a large enough effect; inconclusive means small, poorly fitted or top-dose-only effect, or effect the other way; inactive means flat fitted curve, though single readings scatter; tested in HEK293 cells; note: % is set by controls: 0 for no effect and ±100 for the full control effect; nearly all actives have a fitted effect of over 50% in size; luciferase read-out
# * = called active by the depositor; ? = inconclusive; / = not tested or not shown; & = joins results of further samples; [ ] = dose if it differs, or a comment. Unless noted, calls come from the whole dose curve; as a rule, active = well fitted curve in the direction sought with a large enough effect; inconclusive = small, poorly fitted or top-dose-only effect, or another doubt; inactive = no such curve, though single readings can be large; an effect the other way counts as inactive or inconclusive. Potency is the fitted concentration of half-maximal effect.
# Every second line gives: Cruzain noTriton	SARS PLpro yeast	StopGo reporter	Cruzain inh Det	NS1 function inh	RE007 growth inh	Marburg entry inh	Lassa entry inh
1) COc1ccc(-c2noc(-c3ccc(NCc4ccc(C)cc4)c([N+](=O)[O-])c3)n2)cc1OC
 : -4%	/	-2%	-11%	/	/	-16%[46.1 µM]	-1%[46.1 µM]
2) CC1Cc2ccccc2N1S(=O)(=O)c1cccc(C(=O)OCC(=O)NCc2ccco2)c1 (stereo not given)
 : /	0%	-21%	/	0%	2%	-1%[46.1 µM]	4%
3) Cn1ccc2c(OCC(=O)Nc3ccc(OC(F)(F)F)cc3)cccc2c1=O
 : ?	/	?	-12%	/	/	/	7%[46.1 µM]
4) COC(=O)c1ccc(NC(=O)COC(=O)c2nc3nccc(C)n3n2)cc1
 : /	-1%	15%	/	/	1%	?	1%
5) COc1ccc(C/C(N)=N/O)cc1
 : 20%	2%	-24%	-0.8%	-1%	-3%	3%	0%
6) COc1ccc(N(CC(=O)NCc2ccc3c(c2)OCO3)C(=O)CCC(=O)Nc2ccccn2)cc1
 : /	1%	0%	/	7%	-4%	?	?
7) CC(C)C[C@H](NC(=O)[C@H]1N2C(=O)c3ccccc3C2SC1(C)C)C(=O)N[C@@H](Cc1ccccc1)C(=O)O (stereo not given in full)
 : /	-11%	-22%	/	24%	-15%	/	/
8) OCCNc1nc(-c2cccnc2)nc2ccccc12
 : -7%	7%	/	7.3%	9%	-3%	-25%	15%
9) Cc1ccccc1CN1C2=NCCN2c2ccccc21
 : 4%	11%	?	1.5%	-5%	-19%	-8%	-1%
10) Cc1cc(F)ccc1S(=O)(=O)Nc1ccccc1C(=O)Nc1ncn[nH]1
 : 1%	0%	-28%	-6.6%	-10%	-15%	-21%	1%
11) CC(OC(=O)Cn1[nH]c(=O)c2ccccc2c1=O)C(=O)c1ccccc1 (stereo not given)
 : /	7%	-19%	/	22%	6%	/	/
12) CC(Cc1ccccn1)NC(=O)CCc1nnc(C2CCCCC2)o1 (stereo not given)
 : /	0%	0%	/	-1%	-8%	2%[46.1 µM]	13%
13) CCCSc1ncc(Cl)c(C(=O)N2CCN(c3cccc(Cl)c3)CC2)n1
 : 11%	/	?	-8.0%	/	/	?	-11%[46.1 µM]
14) CCN(CC)S(=O)(=O)c1cccc(-c2nnc(SCC(=O)NC3CCCCCC3)n2N)c1
 : -2%	-3%	?	-1.3%	-6%	-5%	4%	17%
15) O=C(CSc1nnc(Cc2cccs2)n1Cc1ccco1)Nc1cccc(Cl)c1
 : 17%	4%	-17%	-4.2%	1%	14%	?	-10%
16) COC(=O)C12CC3CC(C1)CC(n1cnc(Cl)n1)(C3)C2
 : 3%	?	4%	-2.1%	9%	66%	1%	18%
17) Cc1c(C)c2ccc(OCC(=O)Nc3ccccn3)c(C)c2oc1=O
 : /	-19%	-10%	/	-3%	-14%	/	/
18) COC(=O)c1sc(NC(=O)COc2cccc3ccccc23)nc1C
 : ?	10%	-8%	5.2%	2%	4%	?	?
19) Cc1c(O)nc(SCC(=O)Nc2cccc(C(F)(F)F)c2)n(-c2ccccc2)c1=O
 : /	-6%	-21%	/	?	29%	-14%	11%
20) CCc1ccc(NS(=O)(=O)c2ccc3[nH]cc(C(=O)N4CCCCC4)c(=O)c3c2)cc1
 : ?	4%	32%[activator]	-6.0%	5%	1%	-4%	1%
21) O=C(O)CCc1nn2c3ccccc3n(CCN3CCCCC3)c2nc1=O
 : 5%	-4%	11%	-1.3%	8%	1%	3%	1%
22) COc1ccc(C(=O)/C=C/c2ccc(C)cc2)c(OC(=O)c2ccc([N+](=O)[O-])cc2)c1
 : ?	-1%	35%[activator]	3.3%	-2%	0%	-18%[46.1 µM]	?
23) CCOC(=O)c1cnc2c(C(F)(F)F)cccc2c1N1CCN(C)CC1
 : /	-1%	-12%	/	-2%	-12%	?	19%[46.1 µM]
24) Cc1ccccc1NC(=O)CC1SC(=Nc2ccc(O)cc2)NC1=O (stereo not given)
 : /	0%	18%	/	8%	1%	-3%	-4%
25) Cc1cc(C(C)(C)C)cc(S(=O)(=O)Nc2ccc(O)c(C(=O)O)c2)c1C
 : 22%	-3%	11%	-21%	23%	-11%	2%	25%
26) CC(C)Cn1c(SCC(=O)NC2CCCc3ccccc32)nc(O)cc1=O (stereo not given)
 : -13%	-6%	-17%	-0.9%	?	-1%	0%[46.1 µM]	9%
27) CCS(=O)(=O)c1ncc(Cl)c(C(=O)N(Cc2ccccc2)Cc2ccco2)n1
 : 3%	/	14µM*	-5.0%	/	/	?	?
28) CCOc1ccc(-n2c(SCC(N)=O)nc3c(oc4ccccc43)c2=O)cc1
 : 7%	/	-29%	-3.8%	/	/	6%[46.1 µM]	/
29) N#C/C(=C/C1=C(N2CCOCC2)C(=C/c2cccc([N+](=O)[O-])c2)/CC1)C(=O)Nc1ccccc1F
 : /	/	0%	/	/	7%	7%	9%
30) COc1ccc(NC(=O)N2CCCC(C(=O)NC(C)C)C2)cc1 (stereo not given)
 : -12%	3%	8%	0.7%	-2%	12%	6%[46.1 µM]	2%
31) O=C(NNC(=O)c1ccccc1[N+](=O)[O-])Nc1ccc(Cl)cc1
 : /	1%	24%	/	2%	2%	?	14%
32) COc1ccccc1N(CC(=O)Nc1cc(C)on1)S(=O)(=O)c1ccc(Cl)cc1
 : 3%	9%	-12%	-1.9%	2%	-16%	?	?
33) COCCN(C(=O)COC(=O)COc1ccc2c(c1)CCC2)c1c(N)n(Cc2ccccc2)c(=O)[nH]c1=O
 : /	4%	-20%	/	/	26%	7%	6%
34) COC(=O)c1ccc2c(c1)NC(=O)CS2
 : /	1%	-6%	/	/	-3%	?	-17%[46.1 µM]
35) CCn1c(SCC(=O)c2c(N)n(C)c(=O)n(C)c2=O)nnc1-c1ccccc1
 : 7%	-13%	/	0.0%	-6%	/	0%	7%
36) Cc1cc(C)c(NC(=O)C(=O)NCC(c2cccnc2)N2CCN(Cc3ccccc3)CC2)c(C)c1 (stereo not given)
 : ?	/	?	-6.2%	/	/	/	5%[46.1 µM]
37) CCCCc1nc2ccccc2c(=O)n1NC(=O)c1c(O)c2ccccc2n(C)c1=O
 : /	1%	-25%	/	3%	12%	?	?
38) O=C(NCC(c1cccnc1)N1CCN(c2ccccc2F)CC1)c1ccccc1 (stereo not given)
 : -43%	-10%	-8%	-0.7%	-52%	6%	0%	/
39) O=C1CN(c2ccccc2)C(=S)N1C(=O)c1ccccc1
 : /	-1%	30%[activator]	/	14%	-9%	?	-20%[46.1 µM]
40) COc1cccc(CNC(=O)COc2cc3c(c4oc(=O)cc(C)c24)CCC(C)(C)O3)c1
 : /	-6%	?	/	3%	-12%	/	/
41) COc1cccc(C(=O)Nc2nnc(S(=O)(=O)N3CCCC3)s2)c1
 : -15%	-3%	9%&9%	-1.5%	-2%	-3%	/	0%[46.1 µM]
42) CN1CCC2(CC1)N=C(c1ccc(F)cc1)C(=S)N2C(=O)c1ccc(C(C)(C)C)cc1
 : -9%	2%	?	-26%	-10%	?	?	?
43) O=C(CCS(=O)(=O)c1ccc(Br)cc1)N1CCCCCC1
 : /	-7%	6%	/	-2%	2%	/	/
44) CC1CCCN(C(=O)c2cc3ccc4cccnc4c3[nH]2)C1 (stereo not given)
 : -9%	/	14µM*	-7.3%	/	/	/	-14%[46.1 µM]
45) Cc1ccc(-c2nnc(NCCCO)c3ccccc23)cc1
 : /	-2%	-16%	/	1%	-2%	/	/
46) CC1CCCCN1C(=O)c1ccc(CS(=O)(=O)Cc2ccccc2)cc1 (stereo not given)
 : /	8%	-18%	/	1%	46%	-19%	-5%
47) CC(=O)c1ccc(NC(=O)C(C)OC(=O)c2ccc(NS(=O)(=O)c3ccc(F)c(F)c3)cc2)cc1 (stereo not given)
 : 16µM*	14%	-6%	-7.2%	11µM*	3%	-9%	11%
48) O=C(NCc1ccc(F)cc1)C1CC(=O)N(C2CCCCCCC2)C1 (stereo not given)
 : /	5%	1%	/	-8%	-7%	/	/
49) CC(Oc1ccccc1)C(=O)OCC(=O)Nc1sccc1C(N)=O (stereo not given)
 : /	-11%	-23%	/	/	17%	18%	-5%
50) Cc1csc(NC(=O)C2CCCC2)n1
 : -3%	5%	41%	-2.1%	-4%	-17%	39%	14%
51) CC12CCC(=O)C=C1C(O)CC1C2CCC2(C)C1CCC2(O)C(=O)CO (stereo not given)
 : /	/	-1%	/	/	4%	-3%[46.1 µM]	-1%[46.1 µM]
52) CC12CCC(C(=O)Nc3cc(Cl)ccc3Cl)(C/C1=N\O)C2(C)C (stereo not given)
 : 15%	3%	-20%	1.7%	-16%	2%	-3%	-15%
53) O=C(Cc1coc2ccc3ccccc3c12)NCc1cccs1
 : -6%	?	15%	-11%	-2%	17%	55%	-11%
54) O=C(O)/C=C/c1ccccc1Oc1ccc(Cl)cc1Cl
 : /	5%	-14%	/	/	15%	6%[46.1 µM]	9%[46.1 µM]
55) C=CCN(c1ccc(C(=O)Nc2cccc(C)c2)cc1)S(C)(=O)=O
 : /	0%	?	/	/	3%	0%[46.1 µM]	9%[46.1 µM]
56) Nc1ccccc1Nc1cc(-c2ccccc2)[nH]n1
 : /	-10%	21%	/	17%	25%	?	-13%
57) Cc1ccc2nc(Nc3nc(CSc4nc5ccccc5s4)cc(=O)[nH]3)nc(C)c2c1
 : -18%	11%	-13%	-1.9%	17%	-20%	9%	2%
58) Fc1ccc(/C=C2\CCCC3=C2NC(=S)NC3c2ccc(F)cc2)cc1 (stereo not given)
 : ?	-10%	/	-6.1%	-1%	/	-12%	5%
